HIV Env fusion: inhibitors of HIV-1 Env-driven cell-cell fusion, primary screen, HeLa-JRFL effector, CEM21 target cells, luciferase | inhibition, % at 12.3 µM | AID 651610, 2012 | actives 1.1% (n = 360,000);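 active means mean replicate inhibition score of at least 50 and every replicate individually at or above 50; inconclusive means only one of the two criteria met; inactive means mean below 50 and not all replicates reaching 50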;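 further: 0% = plate neutral controls and 100% = maraviroc near 300 nM; one replicate is shown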
eIF4H FP inh: human eIF4H binding inhibitors, primary screen, translation initiation inhibitor project, biochemical, uHTS, fluorescence polarization; actives 0.94% (n = 290,000); eIF4H fluorescence polarization binding assay; Eukaryotic translation initiation factor 4H (Homo sapiens), Q15056; AID 2012, 2009; inhibition, % at 35 µM;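 active means 50% or more with normal probe brightness, or confirmed in later tests; inconclusive means above 50% with abnormal brightness, or retests that disagree; inactive means below 50% or failed in later tests; about a fifth of its hits are not listed in these tables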;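 further: calls also rest on retests at 20 µM and on dose response follow-up; 0% = protein and probe with vehicle and 100% = probe without protein; strong numbers were not always called active; many hits fall short of the cut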
PABP FP inh: PABP poly(A) RNA binding inhibitors, primary screen, biochemical, fluorescence polarization, uHTS. Polyadenylate-binding protein 1 (Homo sapiens), P11940. actives 1% (n = 290,000). inhibition, % at 35 µM;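 active means 50% or more with normal probe brightness, or confirmed in later tests; inconclusive means above 50% with abnormal brightness, or retests that disagree; inactive means below 50% or failed in later tests; about a fifth of its hits are not listed in these tables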;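 further: calls also rest on retests at 20 µM and on dose response follow-up; controls were probe without protein and protein plus probe with vehicle; some compounds called inactive have numbers as strong as hits; many hits fall short of the cut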
Target sequence (P11940 whole entry, looked up): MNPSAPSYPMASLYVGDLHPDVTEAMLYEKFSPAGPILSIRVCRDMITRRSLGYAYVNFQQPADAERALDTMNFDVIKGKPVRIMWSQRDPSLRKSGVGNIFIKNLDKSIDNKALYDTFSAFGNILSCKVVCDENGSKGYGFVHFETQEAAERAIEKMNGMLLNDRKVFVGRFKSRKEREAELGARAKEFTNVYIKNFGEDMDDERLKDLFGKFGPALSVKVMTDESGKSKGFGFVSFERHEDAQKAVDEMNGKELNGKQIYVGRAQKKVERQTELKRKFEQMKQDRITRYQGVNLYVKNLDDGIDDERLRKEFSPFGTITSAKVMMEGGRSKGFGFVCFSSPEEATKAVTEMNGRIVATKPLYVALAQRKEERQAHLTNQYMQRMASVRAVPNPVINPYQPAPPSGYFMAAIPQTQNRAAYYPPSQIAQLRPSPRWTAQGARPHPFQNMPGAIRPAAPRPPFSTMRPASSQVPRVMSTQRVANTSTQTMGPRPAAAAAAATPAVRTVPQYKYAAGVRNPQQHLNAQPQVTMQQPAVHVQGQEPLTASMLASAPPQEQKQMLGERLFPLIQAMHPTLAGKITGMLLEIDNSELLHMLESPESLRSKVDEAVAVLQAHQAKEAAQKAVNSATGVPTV
Yeast UUG start: modulators of yeast start codon fidelity, primary screen, whole organism, S. cerevisiae, single point, plate reader | S. cerevisiae UUG-firefly luciferase reporter, luminescence/redox ratio | activity score, % at 18.7 µM | actives 0.13% (n = 350,000) | AID 602363, 2012;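 active means replicate mean at a twofold rise or more, about +100% in these data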;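 further: firefly luciferase made from a UUG start codon reports start codon fidelity; reporter light over untreated wells divided by growth signal over untreated wells; some hits fall short of that in this replicate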
Rce1 inhib: yeast Rce1p protease inhibitors, primary screen, biochemical, fluorescence, cell-free homogeneous | calls only | yeast membranes, quenched prenylated peptide cleavage fluorescence | actives 0.27% (n = 290,000);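 active means fall in fluorescence gain of 50% or more versus controls, with final raw signal at or below 3038400; inconclusive means same 50% fall but final raw signal above 3038400; inactive means fall in fluorescence gain under 50%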;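 further: plate controls were neutral control wells for no effect and wells lacking membranes for full effect; tested at 10 µM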
Target sequence (Q03530 whole entry, looked up): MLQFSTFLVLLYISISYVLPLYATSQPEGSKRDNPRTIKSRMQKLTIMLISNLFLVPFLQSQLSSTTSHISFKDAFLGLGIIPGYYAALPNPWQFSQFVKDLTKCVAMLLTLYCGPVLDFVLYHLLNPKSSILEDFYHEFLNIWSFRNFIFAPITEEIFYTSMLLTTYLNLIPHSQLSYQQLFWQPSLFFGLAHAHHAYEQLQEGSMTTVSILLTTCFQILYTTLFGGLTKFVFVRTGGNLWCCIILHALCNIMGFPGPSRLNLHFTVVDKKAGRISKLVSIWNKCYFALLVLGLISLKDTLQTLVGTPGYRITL
CSC inhib: cancer stem cell viability inhibitors, primary screen, luminescence. cancer stem cell-like cells viability. inhibition, % at 7.5 µM. actives 1.1% (n = 300,000). AID 2717, 2010;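 active means mean at 75% or more and at least half the replicates too; inconclusive means mean and replicates disagree; tested in HMLE shEcad cells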;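 further: 0% = median of negative and 100% = median of positive control wells; the first replicate is given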
MT1-MMP act inh: blockers of MT1-MMP proenzyme processing, primary screen, HT1080 RFP-PRO-GFP cells, GFP/RFP fluorescence. Matrix metalloproteinase-14 (Homo sapiens), P50281. GFP/RFP ratio fluorescence, overnight; percent of plate control window, DMSO zero. GFP/RFP ratio change, % at 20 µM. actives 0.061% (n = 360,000). AID 651647, 2012;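 active means GFP/RFP ratio change of at least 30% with cell ATP level not reduced by more than half and red fluorescence within 50% of control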; further: strong numbers were not always called active
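Compound: 20 µM single dose, 1% DMSO / System: HT1080 RFP-PRO-GFP cells / Controls: DMSO and RFP-L50D-GFP cell wells / Read-out basis: GFP/RFP fluorescence ratio / Schedule: overnight compound exposure at 37 °C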
eIF4H FP inh retest: further read-out of eIF4H FP inh, marked with its call; inhibition, %; compound at 20 µM; confirmation average;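 mean of two retest wells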
PABP FP inh retest: further read-out of PABP FP inh, marked with its call; inhibition, %; compound at 20 µM; confirmation repeats;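 mean of two retest wells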
MT1-MMP act inh RFP: recorded beside MT1-MMP act inh, whose call it bears; RFP signal change, %; measured here: RFP expression control read;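 0 = vehicle wells; hits needed this value within 50% of zero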
* hit, by the source's call; i = inactive; ? = inconclusive; / = not tested or not shown. No enrichment for hits; overall some 2.9% were active at least once.

SMILES | HIV Env fusion | eIF4H FP inh | PABP FP inh | Yeast UUG start | Rce1 inhib | CSC inhib | MT1-MMP act inh | MT1-MMP act inh RFP | others
Cc1cccc(SC2CCN(C(=O)C3CCC(=O)N(C4CC4)C3)CC2)c1 (stereo unspecified) | 3 | -8 | 5 | / | i | -3 | / | /
COc1ccc(CN2CCN(C(=O)c3ccc(F)cc3)CC2)c(OC)c1 | -35 | -5 | 14 | -11 | i | -17 | -2 | -1
Cc1ccc(CNC(=O)CN2C(=O)c3ccccc3S2(=O)=O)cc1 | 6 | 7 | 5 | -16 | i | -11 | -2 | 1
O=C(CN1CCOCC1)N/N=C/c1ccc(-c2cccc(Cl)c2Cl)o1 | -15 | 28 | 15 | -4 | i | -13 | -3 | 0
COc1ccc(S(=O)(=O)Nc2nc3n(n2)C(c2ccc(Cl)cc2)CC(=O)N3)cc1 (stereo unspecified) | / | 6 | -1 | / | / | -33 | -2 | -2
COc1ccc(-c2c(-c3ccc(O)cc3O)n[nH]c2C(F)(F)F)cc1 | 12 | -10 | -6 | 5 | i | 31 | 0 | -3
O=C(CCNS(=O)(=O)c1ccccc1)OCc1nnc(-c2ccccc2)o1 | -4 | / | / | -6 | i | -7 | -5 | -2
N=C1C(c2ccccc2)=C(O)CN1c1ccccc1N1CCOCC1 | -32 | -18 | 4 | -12 | i | -11 | -1 | 5
O=C(Nc1ccccc1Cl)NC1(C(=O)N2CCCC2)CCCCC1 | / | 1 | 6 | -12 | i | 0 | 2 | 1
Cn1c(=O)cc(SCC(=O)NCCC2=CCCCC2)c2ccccc21 | / | 5 | 36 | -7 | i | -9 | 4 | 8
COc1ccc(S(=O)(=O)N2CCN(c3ccccc3)CC2)cc1 | -2 | -3 | -1 | / | i | / | -2 | 0
O=C(/C=C/c1ccco1)OCc1nnc(-c2ccccc2)o1 | -1 | 87 | 12 | / | i | -11 | -2 | 2 | eIF4H FP inh retest=-8;PABP FP inh retest=8
Cc1ccc(OC(=O)c2ccccc2C(=O)OCC(F)(F)C(F)F)cc1 | / | 12 | 2 | -13 | i | -17 | 9 | 8
O=C(CNS(=O)(=O)c1cccs1)NCc1ccccc1 | 0 | 2 | -11 | 0 | i | -6 | 2 | 4
Cn1c(N2CCCCC2)nc2c1c(=O)n(Cc1cccc(Br)c1)c(=O)n2C | / | -8 | 2 | 4 | i | / | 9 | -1
COc1ccc(C(=O)N2CCCC2)cc1 | -6 | -8 | 5 | -19 | i | -8 | -1 | 3
O=C(Nc1ccc(S(=O)(=O)N2CCCC2)cc1)C1CCCCC1 | 2 | 17 | 3 | -17 | i | / | 2 | 2
CCCS(=O)(=O)c1c(S(=O)(=O)CCC)c2c(N)cccn2c1C(=O)c1ccc(Br)cc1 | / | 64 | -10 | -3 | i | 18 | -24 | 2 | eIF4H FP inh retest=-1;PABP FP inh retest=1
CCc1ccc(Cn2nnc(C(=O)Nc3cccc(C)c3)c2N)cc1 | 4 | -8 | -3 | -14 | i | -5 | -1 | -2
CCC(Oc1ccc2c(=O)c(-c3ccccc3OC)coc2c1)C(=O)OCc1ccccc1 (stereo unspecified) | / | 4 | -10 | / | i | -1 | -4 | -4
COC(=O)c1sccc1-n1cccc1C(=O)NCc1ccccc1 | / | -3 | 3 | -12 | i | -8 | 6 | 7
O=C(NNC(=S)Nc1ccc(Br)cc1Cl)c1ccco1 | -12 | 14 | 0 | / | i | 3 | / | /
CCN(CC)c1ccc(S(=O)(=O)N2CCOCC2)cc1NS(C)(=O)=O | -40 | 8 | -2 | -9 | i | 14 | 0 | 5
Fc1cccc(Cc2c(-c3cccc(Cl)c3)nc3ccc(Br)cn23)c1 | -78 | / | / | -10 | / | / | -10 | -3
O=C(Cc1ccc(Br)cc1)Nc1ccc(S(=O)(=O)NCC2CCCO2)cc1 (stereo unspecified) | 1 | 2 | 1 | / | i | -6 | -2 | -10

Filtered by structure: those above with a thiophene ring, fused or not (two)
SMILES | HIV Env fusion | eIF4H FP inh | PABP FP inh | Yeast UUG start | Rce1 inhib | CSC inhib | MT1-MMP act inh | MT1-MMP act inh RFP | others
O=C(CNS(=O)(=O)c1cccs1)NCc1ccccc1 | 0 | 2 | -11 | 0 | i | -6 | 2 | 4
COC(=O)c1sccc1-n1cccc1C(=O)NCc1ccccc1 | / | -3 | 3 | -12 | i | -8 | 6 | 7

Looked up one by one from the list above (2):
SMILES | HIV Env fusion | eIF4H FP inh | PABP FP inh | Yeast UUG start | Rce1 inhib | CSC inhib | MT1-MMP act inh | MT1-MMP act inh RFP | others
O=C(CN1CCOCC1)N/N=C/c1ccc(-c2cccc(Cl)c2Cl)o1 | -15 | 28 | 15 | -4 | i | -13 | -3 | 0
O=C(NNC(=S)Nc1ccc(Br)cc1Cl)c1ccco1 | -12 | 14 | 0 | / | i | 3 | / | /

Back to the main list with the 4 entries that preceded the break.
SMILES | HIV Env fusion | eIF4H FP inh | PABP FP inh | Yeast UUG start | Rce1 inhib | CSC inhib | MT1-MMP act inh | MT1-MMP act inh RFP | others
O=C(NNC(=S)Nc1ccc(Br)cc1Cl)c1ccco1 | -12 | 14 | 0 | / | i | 3 | / | /
CCN(CC)c1ccc(S(=O)(=O)N2CCOCC2)cc1NS(C)(=O)=O | -40 | 8 | -2 | -9 | i | 14 | 0 | 5
Fc1cccc(Cc2c(-c3cccc(Cl)c3)nc3ccc(Br)cn23)c1 | -78 | / | / | -10 | / | / | -10 | -3
O=C(Cc1ccc(Br)cc1)Nc1ccc(S(=O)(=O)NCC2CCCO2)cc1 (stereo unspecified) | 1 | 2 | 1 | / | i | -6 | -2 | -10
Cc1ccc(-c2csc3nnc(SCC(=O)NCc4ccco4)n23)cc1 | 6 | -2 | -7 | -17 | i | -6 | -2 | 1
O=C(Nc1nc2ccccc2[nH]1)c1ccccc1F | 75* | -12 | -4 | -90 | i | 124* | 9 | 4
CCCC1=Nc2cc(C(=O)N3CCC(C(=O)OCC)CC3)ccc2Sc2ccccc21 | 1 | 15 | 3 | -9 | i | -3 | -2 | -2
Cc1cccc(NC(=O)CSc2nnc(-c3ccco3)n2CC2CCCO2)n1 (stereo unspecified) | 6 | -7 | -4 | / | i | 10 | -3 | 2
Cc1nc2ccccc2n1CC(=O)NCCN1CCCC1 | -19 | 6 | -8 | -4 | i | -7 | -7 | 1
CCSc1nc(C(F)(F)F)cc(=O)n1-c1ccccc1 | 28 | 2 | -6 | -13 | i | -12 | 8 | 8
COc1cccc(C(=O)NC(=S)NCc2ccco2)c1 | -29 | -1 | 1 | -24 | i | -9 | 1 | -5
O=c1c2ccccc2c(-c2ccccc2)nn1-c1ccc(Cl)c(Cl)c1 | 2 | -4 | -4 | -19 | i | 37 | -6 | -8
O=C(O)COc1ccc(/C=N/NC(=O)c2ccccc2Br)cc1 | / | 5 | 8 | -9 | i | -9 | -3 | 2
COc1ccc(OC)c(/C=N/NC(=O)CCc2n[nH]c(=O)[nH]c2=O)c1 | 4 | 1 | -5 | / | i | 5 | 3 | 5
CCc1nc(C)cn1S(=O)(=O)c1cc(C)c(OC)c(C)c1C | 4 | 5 | 0 | -13 | i | -13 | 2 | 5
Cc1ccc(-c2nnc(-c3ccc(NC(=O)c4cccs4)cc3)o2)cc1 | / | -19 | -28 | -24 | i | 16 | -16 | -7
COc1ccc(C(=O)COC(=O)CN2C(=O)C3C4C=CC(C4)C3C2=O)cc1 (stereo unspecified) | / | -4 | -4 | -7 | i | -9 | -8 | -10
O=C(O)c1cccc(CN2C(=O)SC(Nc3cccc4ccccc34)C2=O)c1 (stereo unspecified) | -1 | -4 | -2 | 3 | i | 3 | 2 | 3
CC(C)[C@H](NC(=O)N1CCn2c1nc1ccccc12)C(=O)N[C@@H](Cc1ccccc1)C(=O)O | / | -5 | -7 | -5 | i | -5 | 0 | 5
Cc1ccc(-c2ccc(=O)n(CCC(=O)N3CCN(c4ccccc4)CC3)n2)cc1 | 5 | -6 | 1 | -31 | i | 13 | 5 | 1
CCc1ccccc1N(C)S(=O)(=O)c1cc(-c2cc(C)no2)ccc1OC | 20 | -2 | -12 | -5 | i | 51 | 0 | -1
COc1ccccc1NS(=O)(=O)c1cc(C(=O)N2CCCC2)ccc1C | / | / | / | -11 | / | -27 | -5 | 0
O=C(Nc1cccc(NC(=O)c2cccs2)c1)c1ccc([N+](=O)[O-])o1 | -60 | -3 | 2 | -24 | i | ? | 11 | -9
CCOc1ccc(C(=O)NC(=S)NCCCN2CCOCC2)cc1 | 1 | -10 | -12 | -16 | i | -19 | 2 | 2
CC1(C)CC(=O)C2=C(C1)OC(N)=C(C#N)C2c1cn(-c2ccccc2)nc1-c1ccccc1 (stereo unspecified) | -2 | 2 | -8 | -4 | i | 1 | -2 | -10
Cc1cccc(NC(=O)C2C3C=CC(O3)C2C(=O)O)c1C (stereo unspecified) | 2 | -8 | 3 | -28 | i | 9 | 0 | 6
CCOC(=O)c1oc2c(CN3CCN(C)CC3)c(O)ccc2c(=O)c1-c1ccccc1OC | -2 | -14 | -19 | -14 | i | -10 | -3 | 2
C/C(=N\NC(=O)c1cccc(Cl)c1)c1cccc(NC(=O)c2ccco2)c1 | / | 2 | 1 | / | i | 3 | 1 | 9
CCc1nnc(NC(=O)CSc2nnc(Cc3cc(=O)[nH]c(=O)[nH]3)n2-c2cccc(OC)c2)s1 | 17 | -4 | 2 | / | i | -2 | 1 | 5
COc1ccc2[nH]cc(C(O)CN3CCC(C(N)=O)CC3)c2c1 (stereo unspecified) | / | -2 | -8 | 26 | i | -2 | 1 | 7
COc1ccc(N=Cc2ccccc2O)cc1 | 18 | / | / | -19 | / | / | 3 | 1
NC(=O)NC(=O)COC(=O)c1ccc(OC(F)F)cc1 | 14 | -2 | -1 | / | i | -4 | 1 | -1
Cc1cc(C)c(OCC(=O)OCC(=O)NCCC2=CCCCC2)c(C)c1 | / | / | / | -17 | i | -4 | -2 | 2

Not a retest: entries from further up.
SMILES | HIV Env fusion | eIF4H FP inh | PABP FP inh | Yeast UUG start | Rce1 inhib | CSC inhib | MT1-MMP act inh | MT1-MMP act inh RFP | others
Cc1ccc(-c2csc3nnc(SCC(=O)NCc4ccco4)n23)cc1 | 6 | -2 | -7 | -17 | i | -6 | -2 | 1
O=C(Nc1nc2ccccc2[nH]1)c1ccccc1F | 75* | -12 | -4 | -90 | i | 124* | 9 | 4
CCCC1=Nc2cc(C(=O)N3CCC(C(=O)OCC)CC3)ccc2Sc2ccccc21 | 1 | 15 | 3 | -9 | i | -3 | -2 | -2

Assay outcomes from PubChem BioAssay.
